# A1 inh – inducers of caspase activity in MEF A1-2A-BIM cells, primary screen, A1 inhibitor project, cell-based, CaspaseGlo luminescence; hit rate 0.51% among 21,000; caspase activation, % (concentration not given with the values); caspase-Glo luminescence, 3 h; percent of clofoctol signal, DMSO as zero;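 active means most replicate scores above 10, or exactly half above 10 with mean activity above 10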;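 further: effector caspase 3 and 7 activity cleaving a DEVD luciferin substrate; 50 nL library stock added to about 30 µL; numbers are from one replicate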
# BJeLR viab HTS – BJeLR cell viability loss, primary screen, luminescence, CellTiterGlo ATP; viability loss activity score, % (test concentration not listed); hit rate 0.64% among 30,000; BJeLR fibroblasts viability, 48 h; HRASV12, hTERT and SV40 LT/ST transformed; in the data active means viability loss activity score above about 50%; about a fifth of its hits are not listed in these tables;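 further: higher score means fewer live cells and less ATP luminescence; stock transfer was 50 or 100 nL into about 30 µL; 0% = vehicle wells and 100% = a reference killing control; one replicate is shown; the record names a cut of 85%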
# The depositor's hits bear a star; · = no result given.
compound	BJeLR viab HTS	A1 inh
CC12CC3CC(C)(C1)CC(C(=O)NN)(C3)C2	-3.4	0.3
C[C@@H]1CN([C@@H](C)CO)C(=O)c2cc(NC(=O)Nc3ccc4c(c3)OCO4)ccc2O[C@H]1CN(C)C(=O)Nc1ccc2c(c1)OCO2	-7.6	0.3
COc1ccc(CN(C)C[C@@H]2Oc3c(NC(=O)Nc4ccccc4)cccc3C(=O)N([C@@H](C)CO)C[C@H]2C)cc1	-3.1	·
C[C@H]1CN([C@@H](C)CO)C(=O)c2cc(NC(=O)CCC(F)(F)F)ccc2O[C@@H]1CN(C)S(=O)(=O)c1cn(C)cn1	0.2	0.5
O=C(c1cc2ccccc2oc1=O)N(Cc1ccccc1)Cc1ccccc1	-1.3	-0.3
CCOc1ccc(NC(=O)C(C)C(Cc2ccc(C)cc2)C(=O)O)cc1 (centres undefined)	0.0	1.0
CN(Cc1ccccc1)C(=O)C1CCCN1S(=O)(=O)c1ccc2c(c1)n(C)c(=O)c(=O)n2C (centres undefined)	-2.5	-1.0
C[C@H](CO)N1C[C@H](C)[C@H](CN(C)S(=O)(=O)c2ccccc2)Oc2ccc(NC(=O)CCN3CCOCC3)cc2C1=O	0.2	0.8
CCCCc1c(C)c(C#N)c2[nH]c3ccccc3n2c1=O	12	-1.4
CN(Cc1ccccc1)S(=O)(=O)c1cc(Br)cnc1N	-3.3	·
C[C@@H]1CN([C@@H](C)CO)C(=O)c2cccc(N(C)C)c2O[C@@H]1CN(C)C(=O)Nc1ccc2c(c1)OCO2	-4.2	·
FC(F)(F)c1n[nH]c(=S)n1/N=C/c1c[nH]c2ccccc12	6.1	1.5
CC(C)NC(=O)Nc1cccc2c1O[C@H](CN(C)Cc1ccccc1)[C@H](C)CN([C@@H](C)CO)C2=O	0.7	·
O=C1C2=C(Nc3ccccc3S(=O)(=O)C2c2ccc(Cl)cc2)c2ccccc21 (centres undefined)	1.0	-0.1
CCc1ccc(C(=O)c2cncc(Br)c2)cc1	12	-1.5

# Next section
compound	BJeLR viab HTS	A1 inh
Cc1ccc(Oc2ncccc2NC(=O)Nc2ccccc2)c2c1CCC2	5.4	-0.3
CC(Sc1nc(-c2ccccc2)cc(C(F)(F)F)n1)C(=O)NCc1ccccc1 (centres undefined)	1.6	-0.5
C[C@@H]1CN([C@H](C)CO)C(=O)c2cccc(NC(=O)Nc3ccc(C(F)(F)F)cc3)c2O[C@@H]1CN(C)S(=O)(=O)c1cn(C)cn1	-6.4	·
C[C@@H]1CN([C@H](C)CO)C(=O)c2cc(NC(=O)Nc3ccc(F)cc3)ccc2O[C@@H]1CN(C)C(=O)Nc1ccccc1	-3.4	0.7
Cc1ccc(NC(=O)Nc2sc(=S)n(C)c2C)cc1	1.3	·
CC(C)NC(=O)N(C)C[C@@H]1Oc2c(NS(=O)(=O)c3cn(C)cn3)cccc2C(=O)N([C@@H](C)CO)C[C@H]1C	3.8	·
Cc1noc(C)c1S(=O)(=O)Nc1cccc2c1O[C@H](CN(C)Cc1ccc(Oc3ccccc3)cc1)[C@H](C)CN([C@H](C)CO)C2=O	2.9	·
N#CCCn1c2c(ccc1=O)CCCC2	8.0	0.7
C[C@]12C[C@H](O)C3C(CC[C@@H]4C[C@H](O)CC[C@]34C)C1CC[C@@H]2C(=O)CO (some centres undefined)	-2.1	-1.1
COc1ccc(S(=O)(=O)Nc2cccc3c2O[C@H](CN(C)C(=O)Nc2ccc4c(c2)OCO4)[C@@H](C)CN([C@H](C)CO)C3=O)cc1	4.6	·
C[C@H]1CN([C@@H](C)CO)C(=O)c2cc(NC(=O)Nc3ccc(F)cc3)ccc2O[C@@H]1CN(C)S(C)(=O)=O	0.3	1.0
Cc1noc(C)c1NC(=O)N(C)C[C@@H]1Oc2c(NC(=O)c3ccncc3)cccc2C(=O)N([C@@H](C)CO)C[C@@H]1C	0.7	·
CC[C@H](C)/C=C(C)/C=C/C(=O)Cc1cc(O)c(C)c(O)c1C=O	0.6	-0.5
CN1C(=O)C(Cc2ccccc2)(c2ccccc2)c2ccccc21 (centres undefined)	-1.8	0.2
O=C1c2ccccc2C(=O)N1CC(=O)N(c1ccccc1)c1ccccc1	0.0	·

# Other results follow:
compound	BJeLR viab HTS	A1 inh
C[C@H](CO)N1C[C@H](C)[C@@H](CN(C)S(=O)(=O)c2cn(C)cn2)Oc2c(NC(=O)C3CC3)cccc2C1=O	0.5	·
C[C@@H]1CN([C@@H](C)CO)C(=O)c2cccc(NC(=O)c3cnccn3)c2O[C@@H]1CN(C)Cc1ccc2c(c1)OCO2	4.1	·
O=C(Nc1ccc(S(=O)(=O)N2CCOCC2)cc1)c1ccccc1	-0.1	·
C[C@H](CO)N1C[C@H](C)[C@H](CN(C)C(=O)Nc2cccc3ccccc23)Oc2c(NC(=O)C3CCOCC3)cccc2C1=O	0.4	·
C[C@H](CO)N1C[C@H](C)[C@H](CN(C)C)Oc2ccc(NS(=O)(=O)c3ccccc3)cc2C1=O	-0.9	0.6
N#CC1=C(N)Nc2onc(-c3cccc(O)c3)c2C1c1ccccc1 (centres undefined)	-1.1	0.0
CC1(C)CC(=O)C(C=NCc2cccnc2)=C(O)C1	1.0	1.2
CSc1nc2ccccc2c(=O)n1C	-3.4	0.2
Cc1noc(C)c1NC(=O)Nc1cccc2c1O[C@@H](CN(C)S(=O)(=O)c1ccccc1)[C@H](C)CN([C@@H](C)CO)C2=O	5.8	·
CC(=O)Oc1c(-c2ccccc2)oc2c(CC=C(C)C)c3c(c(OC(C)=O)c2c1=O)C=CC(C)(C)O3	1.3	-0.4
CCc1ccccc1NC(=S)N(CCCN1CCOCC1)Cc1ccccn1	5.4	·
O=C(CSc1nc(Nc2ccc3c(c2)OCO3)c2ccccc2n1)c1ccc(Cl)cc1	13	-1.8
CC1CCCCN1C(=S)Nc1ccc(S(=O)(=O)N2CCCCC2)cc1 (centres undefined)	-2.5	-1.2
C=CCn1c(=S)sc2c(SCC(=O)N3CCc4ccccc43)ncnc21	-1.7	·
CCCNC(=O)c1[nH]c2ccccc2c1Sc1ccc(Cl)cc1	1.1	0.9

# (cont.)
compound	BJeLR viab HTS	A1 inh
C[C@@H]1CN([C@H](C)CO)C(=O)c2cc(NC(=O)Nc3ccc(C(F)(F)F)cc3)ccc2O[C@@H]1CN(C)C(=O)Nc1ccc(C(F)(F)F)cc1	-1.2	0.2
C[C@@H]1CN([C@@H](C)CO)C(=O)c2cc(NS(=O)(=O)c3ccc(Cl)cc3)ccc2O[C@@H]1CN(C)S(C)(=O)=O	-3.3	-0.8
Cc1ccc(S(=O)(=O)NC(=O)N2CCCN(C(=O)OC(C)(C)C)CC2)cc1	0.3	0.9
CSc1nnc2nc(C)cc(C)n12	-1.4	1.6
CCOC(=O)CSc1nc(C)cs1	-0.9	-0.4
COc1ccc(NC(=O)Nc2ccc3c(c2)C(=O)N([C@@H](C)CO)C[C@H](C)[C@H](CN(C)C(=O)Nc2ccc4c(c2)OCO4)O3)cc1	4.6	0.0
COc1ccc(NC(=O)N(C)C[C@@H]2Oc3ccc(NC(=O)Cc4ccccc4)cc3C(=O)N([C@H](C)CO)C[C@H]2C)cc1	-0.1	0.2
N#CCCN(Cc1ccccc1)C(=O)Nc1ccccc1	0.3	·
COc1ccc2nc3sc(C(=O)N(C)c4ccc(Cl)cc4)cc3cc2c1	27	·
Cc1cc2ccccc2c(=O)n1CC(=O)NCCCN1CCC(C)CC1	1.2	·
COc1ccc(C2C(C(=O)N3CC(C)CC(C)C3)CCC(=O)N2c2ccc(OC)cc2)cc1 (centres undefined)	-5.4	·
COc1ccc(NC(=O)N(C)C[C@H]2Oc3ccc(NS(=O)(=O)c4c(C)noc4C)cc3C(=O)N([C@H](C)CO)C[C@H]2C)cc1	-0.2	0.6
CCOC(=O)N1C(=O)c2ccccc2NC1(C(F)(F)F)C(F)(F)F	1.2	0.9
CCCN(CCC)S(=O)(=O)c1cccc(-c2cn3ccc(C)cc3n2)c1	2.4	·
C[C@H](CO)N1C[C@H](C)[C@@H](CN(C)S(=O)(=O)c2ccccc2)Oc2c(NC(=O)c3ccc(-c4nccs4)cc3)cccc2C1=O	-4.6	·

# Other entries:
compound	BJeLR viab HTS	A1 inh
C[C@@H]1CN([C@@H](C)CO)C(=O)c2cccc(NC(=O)C3CC3)c2O[C@@H]1CN(C)CC1CC1	0.3	·
Cc1sc2ncnc(N3CCN(c4cccc(C(F)(F)F)c4)CC3)c2c1C	-1.1	-0.7
CSc1c2c(c(C#N)c3nc4ccccc4n13)CCCC2	4.8	-0.3
C[C@H](CO)N1C[C@H](C)[C@H](CN(C)C(=O)Nc2ccccc2)Oc2ccc(NC(=O)CCC(F)(F)F)cc2C1=O	-1.5	0.7
O=C(Nc1ccc(F)cc1)N1CCC2(CC1)C(=O)NCN2c1ccccc1	-7.5	-1.2
COC(=O)c1ccc(Oc2nc(Nc3cccc(C)c3C)nc(N3CCC(C)CC3)n2)cc1	-4.2	·
O=c1c2c(-c3ccccc3)csc2nc2n1CCC2	0.1	-0.7
C[C@H](CO)N1C[C@H](C)[C@@H](CN(C)C(=O)NC2CCCCC2)Oc2ccc(NC(=O)C3CCCCC3)cc2C1=O	1.6	0.8
O=C(CSCC(=O)Nc1ccccc1Oc1ccccc1)Nc1ccc2ccccc2c1	0.8	-0.1
Cc1noc(C)c1NC(=O)Nc1ccc2c(c1)C(=O)N([C@H](C)CO)C[C@H](C)[C@H](CN(C)S(=O)(=O)c1ccccc1)O2	-1.0	-1.0
C[C@H](CO)N1C[C@H](C)[C@@H](CN(C)C(=O)Nc2ccccc2)Oc2ccc(N(C)C)cc2C1=O	6.2	-0.1
C[C@H](CO)N1C[C@H](C)[C@H](CN(C)Cc2ccc(-c3ccccc3)cc2)Oc2ccc(NC(=O)Nc3ccccc3)cc2C1=O	2.6	-1.0
C[C@H](CO)N1C[C@H](C)[C@@H](CN(C)Cc2ccccc2)Oc2c(NC(=O)NC3CCCCC3)cccc2C1=O	0.2	·
C[C@@H]1CN([C@@H](C)CO)C(=O)c2cccc(NC(=O)C3CCCCC3)c2O[C@H]1CN(C)Cc1ccccc1	-1.4	·
COC(=O)c1cc(C)nc(Sc2ccccc2NC(=O)Nc2ccc(Cl)cc2)n1	3.0	·

# The final six records of the section before are carried over, then new ones follow:
compound	BJeLR viab HTS	A1 inh
Cc1noc(C)c1NC(=O)Nc1ccc2c(c1)C(=O)N([C@H](C)CO)C[C@H](C)[C@H](CN(C)S(=O)(=O)c1ccccc1)O2	-1.0	-1.0
C[C@H](CO)N1C[C@H](C)[C@@H](CN(C)C(=O)Nc2ccccc2)Oc2ccc(N(C)C)cc2C1=O	6.2	-0.1
C[C@H](CO)N1C[C@H](C)[C@H](CN(C)Cc2ccc(-c3ccccc3)cc2)Oc2ccc(NC(=O)Nc3ccccc3)cc2C1=O	2.6	-1.0
C[C@H](CO)N1C[C@H](C)[C@@H](CN(C)Cc2ccccc2)Oc2c(NC(=O)NC3CCCCC3)cccc2C1=O	0.2	·
C[C@@H]1CN([C@@H](C)CO)C(=O)c2cccc(NC(=O)C3CCCCC3)c2O[C@H]1CN(C)Cc1ccccc1	-1.4	·
COC(=O)c1cc(C)nc(Sc2ccccc2NC(=O)Nc2ccc(Cl)cc2)n1	3.0	·
O=C1NCC(O)=C1C=Nc1ccc(C2CCCCC2)cc1	4.3	·
CCc1ccc(CNC(=O)c2ccc(CSCc3ccc(C)cc3)o2)cc1	-4.2	-1.5
COc1ccc(NC(=O)c2cccs2)cc1OC	-1.8	-3.0
COc1ccc(S(=O)(=O)N(C)C[C@@H]2Oc3c(NC(=O)Nc4ccc(F)cc4)cccc3C(=O)N([C@H](C)CO)C[C@@H]2C)cc1	-2.1	·
Cc1[nH]c2ccc(OC(F)(F)F)cc2c1CCNC(=O)c1c(Cl)cnn1C	12	-1.5
CCC(=O)NC(Nc1c(C)n(C)n(-c2ccccc2)c1=O)(C(F)(F)F)C(F)(F)F	-11	0.4
COc1ccc(-c2c(C)[nH]n3c(=O)c(Cc4ccccc4)c(C)nc23)cc1	2.4	0.7
CC1=Nn2c(Cn3nnc4ccccc43)nnc2SC1	-4.4	-0.5
C[C@@H]1CN([C@H](C)CO)C(=O)c2cc(NS(=O)(=O)c3ccc(Cl)cc3)ccc2O[C@H]1CN(C)Cc1ccc2c(c1)OCO2	-3.4	0.0
O=C1CC2CS(=O)(=O)CC2N1c1ccc(Oc2ccccc2)cc1 (centres undefined)	-5.0	1.3
Cc1ccc(S(=O)(=O)Nc2cccc3c2O[C@@H](CN(C)CC2CCCCC2)[C@@H](C)CN([C@H](C)CO)C3=O)cc1	4.7	·
COc1ccc(NC(=O)N(C)C[C@@H]2Oc3c(NC(=O)Nc4ccc(F)cc4)cccc3C(=O)N([C@H](C)CO)C[C@@H]2C)cc1	-12	·
N#CC1=C(N)N(c2sc3c(c2C#N)CCCC3)C2=C(CCC2)C1(C(F)(F)F)C(F)(F)F	5.1	-1.7
CCC(C)c1cnc(Cc2ccccc2)c(=O)[nH]1 (centres undefined)	-1.2	0.3
O=C(/C=C/c1ccc(Cl)cc1)NCCCn1ccnc1	-4.6	-0.2
C[C@H](CO)N1C[C@H](C)[C@@H](CN(C)S(=O)(=O)c2cn(C)cn2)Oc2ccc(NC(=O)C3CC3)cc2C1=O	-3.0	0.5
Cc1ccc(S(=O)(=O)Nc2cccc3c2O[C@H](CN(C)S(=O)(=O)c2ccc(C)cc2)[C@@H](C)CN([C@@H](C)CO)C3=O)cc1	2.0	·

# These rows are one share of the data, so the mix of outcomes need not match the whole.
